# MARV entry inh: inhibitors of Marburg virus binding or entry into cells | Potency, µM (titrated, usually from 49.2 µM), inactives show at the top dose activity change, negative = inhibition, actives largely listed as inhibitors | Marburg virus pseudotype entry/binding inhibition, cell-based; control for the full effect not named in the record; many of its hits are not listed in these tables | hit rate 6.5% among 18,000; active means well fitted inhibition curve with a large enough effect; inconclusive means small, poorly fitted or top-dose-only effect; inactive means no such curve, though single readings can be large or run the other way; tested in HEK293 cells; note: luciferase read-out
# LASV entry inh: Lassa virus entry inhibition; Potency, µM (highest dose often 49.2 µM), for inactives: at the highest dose activity change, negative = inhibition, actives largely listed as inhibitors; AID 720533; Lassa virus pseudotyped entry inhibition, cell-based qHTS; control for the full effect not named in the record; many of its hits are not listed in these tables; hit rate 4.1% among 18,000; active = well fitted inhibition curve with a large enough effect; inconclusive = small, poorly fitted or top-dose-only effect; inactive = no such curve, though single readings can be large or run the other way; tested in HEK293 cells; note: luciferase read-out
# An asterisk follows results filed as active; ? = inconclusive; nt = no result given; & = joins results of further samples; [ ] = dose if it differs, or a comment. % is set by controls: 0 for no effect and ±100 for the full control effect; potency is the fitted concentration of half-maximal effect. Only part of the results is shown, so the mix of outcomes need not match the whole.
SMILES,MARV entry inh,LASV entry inh
O=C1OCCN1C(=O)[C@H]1[C@H](c2ccc(Cl)cc2)C(c2cccc(Cl)c2)=NN1c1ccc(Br)cc1,-13%,-5%
N[C@@H](CSCCCO)C(=O)O,4%,-27%
NS(=O)(=O)c1cc(Cl)c(Cl)c(S(N)(=O)=O)c1,-5%[17.8 µM],-17%[17.8 µM]
O=C(NC1CC1)c1cccc(NC(=O)C2CCCC2)c1,14%,10%
COc1ccc(CN(CCC(C)C)S(=O)(=O)c2ccccc2Br)c(OC)c1,-27%,?
CC(=O)O[C@@H]1C(=O)O[C@@H]2[C@H]1OC(=O)[C@@H]2OC(C)=O,-24%,-23%
Cc1ncc2n1-c1ccc(Cl)cc1C(c1ccccc1F)=NC2O (configuration not stated),-1%,-20%
Cc1ccc(CC2(O)CCN(CCOc3ccc(O)cc3)CC2)cc1,?,?
COC(=O)[C@@H]1[C@@H](c2ccccc2)NC(=O)N(CCc2cc(OC)c(OC)c(OC)c2)[C@@H]1C,-31%[8.59 µM],-7%[8.59 µM]
Nc1ncnc2c1nc(Br)n2[C@@H]1O[C@H]2COP(=O)(O)O[C@@H]2[C@@H]1O,?,?
CO[C@H]1[C@@H](O)C[C@H](O[C@H]2[C@@H](O)C[C@H](O[C@H]3[C@@H](O)C[C@H](O[C@H]4CC[C@@]5(C)[C@H](CC[C@@H]6[C@@H]5C[C@@H](O)[C@]5(C)[C@@H](C7=CC(=O)OC7)CC[C@]65O)C4)O[C@@H]3C)O[C@@H]2C)O[C@@H]1C,7.1µM*,?
Cc1c(C(=O)NCCN2CCC(c3ccccc3)CC2)cnn1-c1nccc(-c2cccs2)n1,13µM*,-26%
COc1ccc(C(=O)NCCN2Cc3cc(C)ccc3OC(C)C2)c(OC)n1 (configuration not stated),2µM*,-4%
COc1cc2c(cc1OC)[C@@H]1O[C@](c3ccsc3)(C2)Oc2cc(C)n(Cc3ccccc3)c(=O)c21,?,5%[8.59 µM]
CN1CCN(C(=O)c2cc3cc(Cl)ccc3[nH]2)CC1,-11%,-2%
CC1(C)CCC2=C(O1)c1ccccc1C(=O)C2=O,11µM*,7.1µM*
NCCCC[C@H](NC(=O)[C@@H]1CCCN1C(=O)[C@@H]1CSSC[C@H](N)C(=O)N[C@@H](Cc2ccc(O)cc2)C(=O)N[C@@H](Cc2ccccc2)C(=O)N[C@@H](CCC(N)=O)C(=O)N[C@@H](CC(N)=O)C(=O)N1)C(=O)NCC(N)=O,8%&-10%,-3%&-1%
CCOCCn1c(N2CCCN(C)CC2)nc2ccccc21,-7%,-11%
CC[C@]1(O)CC2CN(CCc3c([nH]c4ccccc34)[C@@](C(=O)OC)(c3cc4c(cc3OC)N(C)[C@H]3[C@@](O)(C(N)=O)[C@H](O)[C@]5(CC)C=CCN6CC[C@]43[C@@H]65)C2)C1 (some centres not stated),?,-34%
Clc1ccc(C(c2ccc(Cl)cc2)n2cc[n+](CC(OCc3ccc(Cl)cc3Cl)c3ccc(Cl)cc3Cl)c2)cc1 (configuration not stated),?,?
C=C1C(=O)O[C@@H]2C[C@@H](C)[C@@H]3C=CC(=O)[C@@]3(C)[C@@H](O)[C@H]12,?,?
O=C(Nc1cccc(C(=O)NC2CC2)c1)c1ccccc1,43%[activator],11%
O=C1CCC[C@H]2[C@@H]3CCCN4CCC[C@H](CN12)[C@H]34,7%,5%
c1ccc(Cc2nnc3n2CCN(Cc2cnc(-c4ccccc4)s2)CC3)cc1,10%,-5%
C=C1c2ccccc2O[C@H](C(=O)OCC)C1OC (mixture of isomers),2%[107 µM],-5%[107 µM]
FC(F)(F)c1ccc(-c2nc(-c3ccccc3)oc2Nc2ccc3ccccc3c2)cc1,32%[activator][8.59 µM],nt
COc1cccc(-c2cnc(-c3ccncc3)nc2C2CCN(C(=O)Cc3csc(C)n3)CC2)c1,?,-16%
COc1ccc(C(OCCN2CCC[C@H](C(=O)O)C2)(c2ccc(OC)cc2)c2ccc(OC)cc2)cc1,-25%,4.5µM*
O=C(C=Cc1ccccc1)Nc1cccc(C(=O)NCc2ccccc2)c1,20%,16%
CC[C@H](C)[C@H](NC(=O)[C@H](CCCNC(=N)N)NC(=O)[C@@H](NC(=O)[C@H](CCCNC(=N)N)NC(=O)[C@H](CCCCN)NC(=O)[C@H](CCCNC(=N)N)NC(=O)[C@@H](NC(=O)[C@H](CC(N)=O)NC(=O)[C@@H](N)CS)[C@@H](C)O)[C@@H](C)CC)C(=O)N[C@@H](CCC(N)=O)C(=O)N[C@@H](CCCNC(=N)N)C(=O)NCC(=O)N1CCC[C@H]1C(=O)NCC(=O)N[C@@H](CCCNC(=N)N)C(=O)N[C@@H](C)C(=O)N[C@@H](Cc1ccccc1)C(=O)N[C@H](C(=O)N[C@H](C(=O)N[C@H](C(=O)NCC(=O)N[C@@H](CCCCN)C(=O)O)[C@@H](C)CC)[C@@H](C)O)C(C)C,2%,1%
C[C@]12CC[C@@H]3c4ccc(O)cc4CC[C@H]3[C@@H]1CC[C@@H]2OP(=O)(O)O,12%,1%
Cc1cnc(C)c(-c2ccc3c(c2)CC(CNC(=O)Cc2c(C)[nH]c4ccccc24)O3)n1 (configuration not stated),-8%,-28%
O=C(OCCO)c1ccccc1O,25%&5%,2%&-18%
CCOC(=O)[C@H](CS)NCCN[C@@H](CS)C(=O)OCC,-18%,?
CC(=O)OC1CC2C(C)(C)C(O)C=C[C@@]2(C)C2CC[C@@]3(C)C(c4ccoc4)OC(=O)C4OC43[C@]12C (some centres not stated),-13%,-1%
Cc1ccccc1-c1cncnc1N1CCNCC1,-5%,7%
COC(C/C=C/C=C/CC/C=C\CC(C)/C=C\C(=C/C(=O)O)CC(=O)O)/C(C)=C\C=C(/C)C(=O)O (configuration not stated),14%,-14%
COC(=O)c1c(OCc2ccccn2)cc(=O)n2c1CCN(Cc1ccc3nsnc3c1)CC2,-7%,6%
Cc1cc(C)c(C(=O)NCc2nc(-c3cccc(NC(=O)C4CCCN(C)C4)c3)oc2C)[nH]1 (configuration not stated),?,-4%
O=S(=O)(CCNCCc1ccccc1)NCc1ccccc1,-18%,15%
CCCCCCN1CCN(C2CN(C3CCCCC3)S(=O)(=O)C2)CC1 (configuration not stated),15%,-17%
CCCCC/C=C\C/C=C\CCCCCCCC(=O)NCCc1ccc(O)c(O)c1,-16%,-6%
O=C(O)c1ccccc1Nc1cc(Cl)cc(Cl)c1,-1%,-3%
CCCCCCCCCCCCCCCCCCOCC(O)CO (configuration not stated),-14%,5%
CN(Cc1ccccc1)Cc1cc(=O)oc2ccc3ccccc3c12,?,-11%
O=C(NC1CCN(Cc2ccccc2)CC1)c1ccc(I)cc1,5%&1%,-4%&-7%
COc1cc(-c2cccc(OC)c2OC)cc2c1OCCN(Cc1cn[nH]c1-c1ccc(Cl)cc1)C2,?,?
COc1ccc([C@H]2C[C@H](n3cc(COC(=O)c4ccccc4)nn3)[C@@H](O)CN2CC2CCCCC2)cc1,?,nt
O=c1cc(-c2cccc(O)c2)oc2ccc(O)cc12,77%[activator],?
CCCCCC(=O)N1C[C@@H](O)[C@H](n2cc(-c3ccc(F)cc3)nn2)C[C@H]1c1ccc(C)cc1,-9%,10%

# Continuation:
SMILES,MARV entry inh,LASV entry inh
COC(=O)C1=C(C)N(Cc2ccccc2)C(=NCCc2cccnc2)NC1c1ccc(Br)cc1 (configuration not stated),4%[8.59 µM],-4%[8.59 µM]
CN(C)[C@@H]1C(=O)C(C(N)=O)=C(O)[C@@]2(O)C(=O)C3=C(O)c4c(O)cccc4[C@@](C)(O)[C@H]3C[C@@H]12,-1%[17.8 µM],-1%[17.8 µM]
CC(C)(C)CC(=O)OCC(=O)[C@@]12OC(C)(C)O[C@@H]1C[C@H]1[C@@H]3CCC4=CC(=O)C=C[C@]4(C)[C@@]3(F)[C@@H](O)C[C@@]12C,4%,-15%
C/C=C1\C2C=C(C)C[C@@]1(N)c1ccc(=O)[nH]c1C2,2%,-14%
Cn1ccc2c(-c3ccc(F)cc3F)cc3c(c21)C1CCC3C1 (configuration not stated),?,-10%
COc1ccc(CN(CCN(C)C)c2ncccn2)cc1,8%,5%
COc1ccc(OC)c(CC(C)N)c1 (configuration not stated),4%[107 µM],3%[107 µM]
CCCCCCCC1=Cc2ccccc2C(C(C(C)=O)C(=O)OC)N1C(=O)OC (configuration not stated),-5%[8.59 µM],-12%[8.59 µM]
CC(CCC(=O)O)C1CCC2C3CC(O)[C@@H]4CC(O)CC[C@]4(C)C3CC[C@@]12C (some centres not stated),4%,-1%
CC(=O)[C@@]1(O)CC[C@H]2[C@@H]3C[C@H](C)C4=CC(=O)CC[C@]4(C)[C@H]3CC[C@@]21C,5%&2%,1%&-8%

# Taken from the entries so far for reference:
SMILES,MARV entry inh,LASV entry inh
CCCCCCCCCCCCCCCCCCOCC(O)CO (configuration not stated),-14%,5%
CN(Cc1ccccc1)Cc1cc(=O)oc2ccc3ccccc3c12,?,-11%
O=C(NC1CCN(Cc2ccccc2)CC1)c1ccc(I)cc1,5%&1%,-4%&-7%
COc1cc(-c2cccc(OC)c2OC)cc2c1OCCN(Cc1cn[nH]c1-c1ccc(Cl)cc1)C2,?,?
COc1ccc([C@H]2C[C@H](n3cc(COC(=O)c4ccccc4)nn3)[C@@H](O)CN2CC2CCCCC2)cc1,?,nt
O=c1cc(-c2cccc(O)c2)oc2ccc(O)cc12,77%[activator],?
CCCCCC(=O)N1C[C@@H](O)[C@H](n2cc(-c3ccc(F)cc3)nn2)C[C@H]1c1ccc(C)cc1,-9%,10%
COC(=O)C1=C(C)N(Cc2ccccc2)C(=NCCc2cccnc2)NC1c1ccc(Br)cc1 (configuration not stated),4%[8.59 µM],-4%[8.59 µM]
CN(C)[C@@H]1C(=O)C(C(N)=O)=C(O)[C@@]2(O)C(=O)C3=C(O)c4c(O)cccc4[C@@](C)(O)[C@H]3C[C@@H]12,-1%[17.8 µM],-1%[17.8 µM]
CC(C)(C)CC(=O)OCC(=O)[C@@]12OC(C)(C)O[C@@H]1C[C@H]1[C@@H]3CCC4=CC(=O)C=C[C@]4(C)[C@@]3(F)[C@@H](O)C[C@@]12C,4%,-15%
C/C=C1\C2C=C(C)C[C@@]1(N)c1ccc(=O)[nH]c1C2,2%,-14%
Cn1ccc2c(-c3ccc(F)cc3F)cc3c(c21)C1CCC3C1 (configuration not stated),?,-10%
COc1ccc(CN(CCN(C)C)c2ncccn2)cc1,8%,5%
COc1ccc(OC)c(CC(C)N)c1 (configuration not stated),4%[107 µM],3%[107 µM]
CCCCCCCC1=Cc2ccccc2C(C(C(C)=O)C(=O)OC)N1C(=O)OC (configuration not stated),-5%[8.59 µM],-12%[8.59 µM]
CC(CCC(=O)O)C1CCC2C3CC(O)[C@@H]4CC(O)CC[C@]4(C)C3CC[C@@]12C (some centres not stated),4%,-1%
CC(=O)[C@@]1(O)CC[C@H]2[C@@H]3C[C@H](C)C4=CC(=O)CC[C@]4(C)[C@H]3CC[C@@]21C,5%&2%,1%&-8%

# Continued.
SMILES,MARV entry inh,LASV entry inh
CCCCN1C[C@H](CSC)[C@@H](CC(=O)Nc2ccc(OC)cc2)C1=O,?,?
Cc1cc(CNC(=O)c2cnn(-c3nccc(-c4ccc5c(c4)OCO5)n3)c2C2CC2)on1,5%,-4%
COc1ccc2ccccc2c1-c1c(OC)ccc2ccccc12,5%,?
CC(C)(C)C(=O)OCC(=O)[C@H]1CC[C@H]2[C@@H]3CCC4=CC(=O)CC[C@]4(C)[C@H]3CC[C@]12C,10%,-4%
O=C(CCC1CCN(Cc2ccccc2)CC1)c1ccc2c(c1)NCCCC2,14µM*,?
O=S(=O)(NCc1nc(N2CCCC2)c2cc(Cl)ccc2n1)c1ccccc1OC(F)(F)F,?,-7%
CN1CCC(N2CCN(C3CN(Cc4ccc(F)cc4)S(=O)(=O)C3)CC2)CC1 (configuration not stated),-10%,7%
O=C1N(Cc2ccccc2C(F)(F)F)c2ccccc2[C@@]12O[C@H](COc1ccccc1)CC1=C2CCC1,-24%[8.59 µM],4%[8.59 µM]
COc1cc(CO[C@H]2C=C[C@@H](c3ccccc3)O[C@H]2CO)cc(OC)c1,?,-18%[8.59 µM]
COC(=O)C1=C(C)N(CCc2cc(OC)c(OC)c(OC)c2)C(=O)N[C@H]1c1ccc(Br)cc1,-22%,?
CC1(C)CC2C1CCC1(C)OC2(C)CCC1O (configuration not stated),5%,-15%
Cc1cnc(-n2ncc(C(=O)N(CCO)C(C)C)c2-c2cccs2)nc1-c1ccc(F)cc1,21%,-4%
Cc1c(C)c2c(c(C)c1O)CC[C@@](C)(C(=O)O)O2,26%[17.8 µM],-6%[17.8 µM]
